Compound activity (PubChem)
Cruzain Triton = inhibitors of Trypanosoma cruzi cruzain with detergent | purified cruzain, Z-FR-AMC fluorescence, 0.01% Triton | AID 1478 | 200,000 compounds, 0.43% hits | P25779 | Potency, µM, inactives show max response, negative = inhibition, most hits filed as inhibitors;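 also: plate controls were neutral wells for no effect and buffer without enzyme for full effect; nearly all actives have a fitted effect of over 40% in size; top concentration of the series not given in the record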
Target sequence (P25779 123-467 limits assumed): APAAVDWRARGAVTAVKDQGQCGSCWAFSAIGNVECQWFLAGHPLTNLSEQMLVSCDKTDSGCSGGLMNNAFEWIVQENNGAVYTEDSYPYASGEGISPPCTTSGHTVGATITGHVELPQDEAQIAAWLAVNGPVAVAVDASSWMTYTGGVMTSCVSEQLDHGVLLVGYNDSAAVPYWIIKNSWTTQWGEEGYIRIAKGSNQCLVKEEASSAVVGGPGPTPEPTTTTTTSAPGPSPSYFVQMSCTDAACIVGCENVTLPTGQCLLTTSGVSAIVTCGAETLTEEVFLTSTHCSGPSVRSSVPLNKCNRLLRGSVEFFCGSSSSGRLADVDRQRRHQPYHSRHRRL
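15 min RT preincubation of 1.5 nM cruzain with compound, then 2 uM Z-FR-AMC added; kinetic AMC fluorescence, 60 s delta. Triton X-100 0.01%, pH 5.5.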
Marburg entry inh = Marburg virus entry inhibition | 300,000 compounds, 1.8% hits | Marburg virus pseudotyped entry inhibition, cell reporter; control for the full effect not named in the record; about a third of the inactives were read at about 46 µM | Potency, µM (top dose mostly 37.8 µM), for inactives: top-dose activity change, negative = inhibition, hits mostly inhibitors | AID 540276; active = well fitted inhibition curve with a large enough effect; inconclusive = small, poorly fitted or top-dose-only effect, or effect the other way; inactive = flat fitted curve, though single readings scatter; tested in HEK293 cells; about a fifth of its hits are not listed in these tables; also: % is scaled to controls: 0 for no effect and ±100 for the full control effect; luciferase read-out
Lassa entry inh = inhibitors of Lassa virus binding or cell entry. Lassa virus pseudotype entry inhibition, cell reporter; control for the full effect not named in the record. Potency, µM (titrated, usually from 37.9 µM), for the others: top-dose activity change, negative = inhibition, most hits filed as inhibitors. 300,000 compounds, 1.2% hits. AID 540256; active means well fitted inhibition curve with a large enough effect; inconclusive means small, poorly fitted or top-dose-only effect, or effect the other way; inactive means flat fitted curve, though single readings scatter; tested in HEK293 cells; also: % is scaled to controls: 0 for no effect and ±100 for the full control effect; nearly all actives have a fitted effect of over 50% in size; luciferase read-out
SARS PLpro yeast = blocks SARS-CoV papain-like protease in a yeast assay. Potency, µM (series often up to 32.9 µM), inactives show at the highest dose activity, positive = growth rescue. 330,000 compounds, 0.19% hits. S. cerevisiae expressing SARS-CoV PLpro, growth rescue; control for the full effect not named in the record; active means well fitted rising curve with a large enough effect; inconclusive means small, poorly fitted or top-dose-only effect; inactive means no such curve, though single readings can be large or run the other way; also: 0% is about no effect; nearly all actives have a fitted effect of over 55% in size; growth read by luminescence after 48 h
Cruzain noTriton = cruzain (T. cruzi) inhibition without detergent. P25779. AID 1476. purified cruzain, Z-FR-AMC fluorescence, no detergent. 200,000 compounds, 2.3% hits. Potency, µM, for the others: max response, negative = inhibition, actives largely listed as inhibitors;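 also: plate controls were enzyme without inhibitor for no effect and buffer without enzyme for full effect; nearly all actives have a fitted effect of over 40% in size; top concentration of the series not given in the record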
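Detergent-free condition (0.00005% Triton X-100) in acetate buffer pH 5.5 with DTT. 1.5 nM enzyme and compound were pre-mixed 15 min, then 2 uM Z-FR-AMC substrate added; reaction progress from fluorescence change between first and third reads (60 s).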
StopGo reporter = lowers the luciferase signal of an FMDV 2A StopGo reporter | human cells with a luciferase reporter of 2A StopGo recoding; control for the full effect not named in the record | Potency, µM (titrated, usually from 57.9 µM), without a hit: at the top dose signal change, negative = less light | 410,000 compounds, 1.2% hits; active = well fitted falling curve with a large enough effect; inconclusive = small, poorly fitted or top-dose-only effect; inactive = no such curve, though single readings can be large or run the other way; tested in HEK293T cells; also: % is scaled to controls: 0 for no effect and ±100 for the full control effect; nearly all actives have a fitted effect of over 45% in size; luciferase light after 4 h
RE007 growth inh = less growth of the S. pombe RE007 Vpr strain; Potency, µM (doses to about 92.2 µM), for the others: at the top dose activity change, negative = less growth; AID 651644; 360,000 compounds, 0.21% hits; S. pombe RE007 Vpr strain, BacTiter-Glo ATP luminescence, 24 h; control for the full effect not named in the record; active = well fitted falling curve with a large enough effect; inconclusive = small, poorly fitted or top-dose-only effect; inactive = no such curve, though single readings can be large or run the other way;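 also: % is scaled to controls: 0 for no effect and ±100 for the full control effect; nearly all actives have a fitted effect of over 50% in size; the assay follows cell death caused by Vpr and the record does not say whether a fall means rescue or toxicity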
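Fission yeast strain RE007, carrying one chromosomally integrated HIV-1 vpr copy, was seeded at OD 0.01 in PMG+AL medium with 23 nL pinned compound. After 24 h at 30 °C and 99% humidity, viability was read by BacTiter-Glo luminescence.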
NS1 inh = influenza NS1 inhibition. 270,000 compounds, 0.4% hits. AID 2326. S. cerevisiae slowed by influenza A NS1, growth recovery by OD600. Potency, µM (titrated, usually from 46.1 µM), inactives show top-dose activity, positive = more growth; active means well fitted rising curve with a large enough effect; inconclusive means small, poorly fitted or top-dose-only effect; inactive means no such curve, though single readings can be large or run the other way; also: nearly all actives have a fitted effect of over 50% in size
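OD600 was taken as the measure of yeast growth restored by compound in an NS1-expressing S. cerevisiae strain. Cells had been washed out of glucose medium and diluted 1:100 into galactose -URA medium, pH 6.0.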
Starred values were filed as active, the others as inactive; ? = inconclusive; / = no result given; & = joins results of further samples; [ ] = remark or other dose. Unless noted, calls follow the shape of the dose curve; as a rule, active = well fitted curve in the direction sought with a large enough effect; inconclusive = small, poorly fitted or top-dose-only effect, or another doubt; inactive = no such curve, though single readings can be large; an effect the other way counts as inactive or inconclusive. Potency is read from the fitted curve at half-maximal effect.

SMILES	Cruzain Triton	Marburg entry inh	Lassa entry inh	SARS PLpro yeast	Cruzain noTriton	StopGo reporter	RE007 growth inh	NS1 inh
COc1ccc(/C=C/C(=O)Nc2ccc3nc(N4CCC(C)CC4)cc(C)c3c2)cc1OC	2.0%	10µM*	?	/	1%	-13%	/	/
CCOCCCNC(=O)c1ccccc1SC	-0.7%	10%	2%	0%	21%	-11%	10%	1%
CNc1nc(SCC(=O)Nc2ccc(Cl)c(Cl)c2)nc(N2CCOCC2)n1	/	/	/	?	/	-24%	-3%	-2%
O=C(CS(=O)(=O)c1cccc2nsnc12)Nc1cc(F)ccc1F	-1.6%	/	?	/	-5%	13%	/	/
CCOc1cc(CNc2ccc(S(N)(=O)=O)cc2)cc(Cl)c1OC	-3.4%	?	9%	-1%	7%	?	-2%	-3%
COc1ccc(C(=O)Nc2nnc(S(=O)(=O)N(C)c3ccc(C)cc3)s2)cc1	-1.6%	/	17%[46.1 µM]	/	-4%	23%	/	/
Cc1sc2nc(C(C)C)nc(SCC(=O)N3CCOCC3)c2c1C	/	8%[46.1 µM]	-3%[46.1 µM]	-9%	/	-10%	-6%	-25%
CCOC(=O)Cc1csc(NC(=O)/C=C\c2ccccc2Cl)n1	/	?	?	-1%	/	-19%	-12%	1%
COc1cc(C2C(C(=O)c3cc4ccccc4o3)=C(O)C(=O)N2CCN2CCOCC2)ccc1OCCC(C)C (stereo not drawn)	/	?	?	1%	/	-4%	-25%	7%
CCOC(=O)c1sc2nc(CC(=O)OC)nc(NCC(=O)OC)c2c1C	-5.6%	19%	-13%	5%	1%	7%	-3%	-54%
CCOC(=O)c1nn(-c2ccccc2)c(=O)cc1OCC(=O)Nc1cc(C)ccc1OC	/	12%	11%	2%	/	11%	34%	/
CC(C)(C)n1nnnc1C(c1cccs1)N1CCCc2ccccc21 (stereo not drawn)	0.1%	?	-25%	/	-4%	?	10%	-32%
CCN(C(=O)c1ccc2c(=O)n3c(nc2c1)CCCCC3)c1ccccc1C	/	/	/	2%	/	-27%	16%	8%
Cc1cc(C)nc(NS(=O)(=O)c2ccc(NC(=O)c3cc4c(=O)n5cccc(C)c5nc4n3C)cc2)n1	/	-16%[46.1 µM]	0%[46.1 µM]	-1%	/	7%	-5%	4%
Cc1ccc(NC(N)=S)cc1C	0.5%	14%	-1%	23%	7%	-10%	0%	22%
O=C(COc1ncnc2sccc12)Nc1cccc(S(=O)(=O)N2CCCC2)c1	/	/	/	1%	/	-2%	10%	3%
CC1=NN(c2ccccc2)C(=O)/C1=C/c1cccs1	-1.9%	2%	10%	-33%	-7%	0%	-23%	-27%
COc1ccccc1OCCCCN1CCCCC1	/	/	/	2%	/	7%	6%	5%
CSc1ccc(CCNC(=O)c2cc3n(n2)CCCN(Cc2ccc(C)cc2)C3=O)cc1	-0.9%	/	-15%[46.1 µM]	/	-4%	-19%	/	/
CC(C)(C)NCCOc1ccc2ccccc2c1	/	?	-3%	0%	/	-12%	-18%	3%
COC(=O)c1ccccc1NC(=O)c1ccc(COc2cc(C)cc(C)c2)o1	-1.4%&-21%	?	-2%[46.1 µM]	3%	?	-8%&0%	-2%	3%
CC(C(=O)OCC(=O)N1CCCCC1)N1C(=O)c2ccccc2C1=O (stereo not drawn)	/	17%	24%	-2%	/	3%	-3%	/
COc1ccccc1N(C)S(=O)(=O)c1ccc(C(=O)OCC(=O)N(C)c2ccccc2)cc1	/	?	?	0%	/	-14%	-13%	/
Cc1ccc(NC(=O)CCC(=O)OCC(=O)c2ccc(Oc3ccc([N+](=O)[O-])cc3)cc2)cc1C	-6.0%	-7%	8%	3%	-2%	4%	1%	-17%
CCN(CC)CCNC(=O)C1CCN(C(=O)c2cnn(-c3ccccc3)c2-n2cccc2)CC1	-2.2%	6%[46.1 µM]	16%[46.1 µM]	/	-10%	25%	/	/
Cn1c(=O)n(C)c2cc(/C=N/NC(=O)c3ccc(Cl)cc3Cl)ccc21	-5.6%	-9%	-14%	0%	-1%	4%	16%	-27%
C=CCn1c(-c2csc3c2CCC(C)C3)n[nH]c1=S (stereo not drawn)	-5.9%	2%	-4%	23%	-11%	?	2%	17%
CSCC[C@H](NC(=O)OC(C)(C)C)C(=O)N/N=C/c1cc2ccc(C)cc2nc1Cl	-10%	-6%	-9%	-8%	?	-1%	-4%	6%
CC(C)NC(=O)c1nc2ccccc2s1	0.1%	?	16%	-2%	1%	29%	-14%	13%
CCOC(=O)C1=C(CC)OC(N)=C(C#N)C1c1ccsc1 (stereo not drawn)	-3.8%	-1%	2%	-5%	-5%	?	/	2%
O=C(NCc1cnn(-c2ccccc2)c1)C1CCC(=O)N(C2CC2)C1 (stereo not drawn)	/	?	-10%[46.1 µM]	-4%	/	-6%	14%	-3%
O=C(Cn1ncc2c3ccccc3n(Cc3ccccc3)c2c1=O)NC1CCCC1	/	27%[46.1 µM]	47%[46.1 µM]	-2%	/	-7%	-5%	-6%
CC(=O)c1ccc(NC(=O)CSC2=NS(=O)(=O)c3cc(Cl)ccc3N2)cc1	/	14%	2%	2%	/	4%	-2%	/
Cc1c(OCC(=O)NCCCN2CCCC2=O)ccc2c3c(c(=O)oc12)CCCC3	/	/	/	3%	/	-23%	-6%	-8%
Cc1ccc(NC2=C(Cl)C(=O)OC2OC(=O)c2ccc(C)cc2)cc1 (stereo not drawn)	/	?	7%	-19%	/	-19%	26%	/
Brc1ccc(/C=N/Nc2nc3ccccc3o2)cc1	/	/	/	-5%	/	54%[activator]	-10%	-45%
Nc1nonc1-n1nnc(C(=O)N/N=C/c2ccncc2)c1CSc1ccc(Cl)cc1	/	/	/	4%	/	-1%	-5%	0%
O=C(Nc1cc(Cl)ccc1Oc1ccccc1)C1=COCCO1	/	-12%	-8%	-13%	/	-24%	-4%	/
O=C(CN1CCN(Cc2ccccc2)CC1)Nc1ccc(F)c(F)c1	/	/	/	0%	/	-4%	2%	-4%
COc1ccc(O)c(/C=N/Nc2nc(C)cc(-c3ccccc3)n2)c1	/	?	2%	/	/	-19%	-7%	/
O=C(N/C(=C/c1ccc([N+](=O)[O-])cc1)C(=O)N1CCCC1)c1ccccc1	/	0%	2%	1%	/	27%	27%	2%
COc1ccc(Cl)cc1NC(=O)c1cc(-c2ccc3c(c2)OCO3)on1	-1.3%	-5%[46.1 µM]	13%[46.1 µM]	/	4%	-23%	/	/
CCOP(=O)(OCC)C1NC(=O)N(c2ccccc2)C1=O (stereo not drawn)	/	/	/	0%	/	-6%	-3%	?
CCNC(=S)Nn1cnc2ccccc21	/	/	/	-4%	/	22%	19%	7%
COc1cc(/C=N/NC(=O)CSCc2ccc([N+](=O)[O-])cc2)cc(OC)c1OC	1.9%	9%	15%	12%	-5%	?	-20%	?
CCCCNC(=O)C1CCN(Cc2ccc(OCc3ccccc3)c(OC)c2)CC1	/	/	/	3%	/	45%[activator]	2%	22%
CC(Cc1ccsc1)NCc1cn[nH]c1-c1ccc(F)cc1F (stereo not drawn)	/	?	-4%	0%	/	-3%	-20%	-6%
COc1ccc(S(=O)(=O)NC(C)C)cc1C(=O)N1CCOCC1	/	7%[46.1 µM]	?	-5%	/	-15%	0%	/
O=[N+]([O-])c1ccccc1S(=O)(=O)Nc1ccc(S(=O)(=O)Nc2nccs2)cc1	/	-12%[46.1 µM]	-22%	0%	/	30%	-10%	11%
CC(Cc1c[nH]c2ccccc12)C(=O)N1CCN(c2ccccc2F)CC1 (stereo not drawn)	/	/	/	0%	/	-17%	-1%	-14%

Next section:
SMILES	Cruzain Triton	Marburg entry inh	Lassa entry inh	SARS PLpro yeast	Cruzain noTriton	StopGo reporter	RE007 growth inh	NS1 inh
Cc1ccc(S(=O)(=O)CCC(=O)OCC(=O)c2c[nH]c3ccccc23)cc1	-30%	?	-8%	2%	20µM*	-4%	-3%	-7%
Cc1cccc(N2C(=O)CCC2=O)c1	2.3%	?	16%	13%	8%	-22%	5%	-3%
CCCn1c(-c2nonc2N)nc2ccccc21	-7.2%	11%	-2%	-13%	-16%	0%	9%	-3%
CCN(CC)C(=S)SCC(=O)Nc1nc(-c2ccccc2)c(-c2ccccc2)o1	-1.7%	?	?	15%	32µM*	1%	3%	?
Cc1c(C(=O)NCCC2=CCCCC2)cccc1[N+](=O)[O-]	-0.2%	20%	9%	2%	-3%	44%[activator]	-16%	-7%
CCOc1ccc(OCCCN(C)C)cc1	3.4%	7%	14%	-5%	-9%	6%	15%	9%
CC(C)=CCN1CCN(Cc2coc3ccc(C)cc3c2=O)CC1CCO (stereo not drawn)	/	9%[46.1 µM]	16%[46.1 µM]	0%	/	30%	-23%	8%
COc1ccc(NC(=O)CC2C(=O)NC3CCCCC3N2C(=O)c2ccc(F)cc2)cc1 (stereo not drawn)	/	-5%[46.1 µM]	-13%	-1%	/	-25%	24%	2%
CCCCOc1ccc(CSC(=N)N)cc1[N+](=O)[O-]	3.3%	14µM*	8%	0%[6.58 µM]	-8%	-30%	23%	5%
CCc1ccccc1N1CC(c2nc3ccccc3n2CCCCOc2ccccc2OC)CC1=O (stereo not drawn)	-12%	?	?	/	?	?	/	/
O=C1c2ccccc2C(Nc2ccc3c(c2)OCCO3)N1c1ccccn1 (stereo not drawn)	-5.5%	/	/	14%	-8%	-6%	-6%	-14%
Cc1cccc(NC(=O)N2CCC(NC(=O)c3ccco3)CC2)c1	/	1%[46.1 µM]	4%	0%	/	-3%	-10%	-1%
Nc1ccc(N2CCN(C(=O)c3cccs3)CC2)cc1	-1.4%	3%	-4%	9%	-28%	-9%	-6%	21%
NNC(=O)c1ccc(COc2ccc([N+](=O)[O-])cc2)o1	/	/	/	-4%	/	-2%	6%	5%
O=C(NC1CC(=O)N(c2ccc(Cl)cc2)C1)c1ccc(S(=O)(=O)N2CCOCC2)cc1 (stereo not drawn)	-4.5%	/	-20%[46.1 µM]	/	?	-28%	/	/

Random draw from the library; 4.6% or so of the library scored in one or more.
